Screening data (PubChem)
Vaccinia inh – blocks a specific stage of Vaccinia orthopoxvirus infection, primary screen, cell-based, single point. 0.01% of 89,000 active. activity change (mCherry), % (concentration not given with the values). AID 1053133, 2014. Vaccinia-infected cells, mCherry/Venus stage reporter fluorescence; hits give low values; some inactives read as strong as hits;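 active = mCherry past -33% and 40 or more points under the early reporter, replicates agreeing; inconclusive = past -33% without that gap or agreement; tested in A549 cells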;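 also: scaled between vehicle wells and reference inhibitor wells; 23 nL library stock went into each well; one replicate is shown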
Vaccinia inh Venus – also measured in Vaccinia inh; calls as there; activity change (Venus), %; measured here: Venus reporter, other viral stage;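 negative = less Venus signal; first of two replicates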
The depositor's hits bear a star; ? = inconclusive; . = no result given; & = joins results of further samples. Not all compounds are listed (hit frequency here may not be typical).

SMILES	Vaccinia inh	Vaccinia inh Venus
COc1ccccc1C(=O)N1C[C@H]2[C@@H](c3ccccc31)[C@H](CO)N2C(=O)Nc1ccccc1	19	17
O=C(CN1CCOCC1)N[C@@H]1CC[C@H](CCn2cc(C3CCCCC3)nn2)O[C@H]1CO	7	0
O=C(C[C@H]1CC[C@H]2[C@@H](COC[C@@H](O)CN2C(=O)c2ccncc2)O1)NCc1cc(F)cc(F)c1	4	1
C[C@H]1CN([C@@H](C)CO)C(=O)c2cc(NS(=O)(=O)c3cn(C)cn3)ccc2O[C@@H]1CN(C)S(=O)(=O)c1ccccc1	11	2
O=C(NCC[C@@H]1CC[C@H](NC(=O)C2CCC2)[C@H](CO)O1)c1cc(Cl)cc(Cl)c1	-5	-2
CCCC(=O)Nc1ccc2c(c1)OC[C@H](C)N(C(C)=O)C[C@H](C)[C@@H](OC)CN(C)C2=O	0	-5
CS(=O)(=O)Nc1ccc2c(c1)[C@H]1C[C@H](CC(=O)NCc3ccncc3)O[C@@H](CO)[C@H]1O2	10	5
Cc1cc(C(=O)Nc2ccc3c(c2)C(=O)N(C)[C@@H]2CC[C@H](CC(=O)NC4CCCC4)O[C@@H]2CO3)no1	3	7
COc1ccccc1-c1ccc2c(c1)[C@H]1[C@H](CCN1C(=O)C1CCCCC1)[C@@H](CO)N2	?	.
CC(C)NC(=O)N(C)C[C@@H]1Oc2c(NC(=O)C3CCOCC3)cccc2C(=O)N([C@H](C)CO)C[C@H]1C	18	12
COc1ccc2c3c([nH]c2c1)[C@H](CO)NCC31CN(C(=O)Nc2c(C)noc2C)C1	2	6
O=C(CC1CC1)N1[C@@H](CO)[C@@H](c2ccccc2)C12CN(Cc1ccccc1)C2	4	10
COc1ccc(S(=O)(=O)N(C)C[C@H]2Oc3c(NC(=O)CCCCCC(=O)Nc4ccccc4N)cccc3C(=O)N([C@H](C)CO)C[C@H]2C)cc1	4	6
C[C@H](CO)N1C[C@H](C)[C@@H](CN(C)C(=O)Nc2cccc3ccccc23)Oc2ccc(NS(=O)(=O)c3ccc(Cl)cc3)cc2CC1=O	10	11
O=C(C[C@H]1CC[C@@H](NS(=O)(=O)c2ccc(F)cc2)[C@@H](CO)O1)NC1CCCCC1	2	2
Cc1ccc(S(=O)(=O)N2C[C@H](O)COC[C@H]3O[C@@H](CC(=O)NCc4ccc5c(c4)OCO5)CC[C@@H]32)cc1	-12	-8
CCCNC(=O)C[C@@H]1C[C@H]2c3cc(NS(C)(=O)=O)ccc3O[C@H]2[C@H](CO)O1	2	5
CC=Cc1ccc2n(c1=O)C[C@@H]1[C@@H](CO)[C@H](C(=O)N(C)C)N(CCC(F)(F)F)[C@H]21 (mixture of isomers)	12	10
CCC(=O)N1C[C@@H](C)[C@@H](OC)CN(C)C(=O)c2ccc(NC(=O)c3cnccn3)cc2OC[C@@H]1C	-5	-11
COc1cccc(S(=O)(=O)Nc2ccc3c(c2)[C@@H]2C[C@H](CC(=O)NCc4ccc(Cl)cc4)O[C@@H](CO)[C@@H]2O3)c1	?	.
CS(=O)(=O)N1[C@H](C(=O)NC2CCC2)[C@@H](CO)[C@@H]2Cn3c(ccc(-c4cccc(F)c4)c3=O)[C@@H]21	20	9
O=C(NCC[C@H]1CC[C@H](NC(=O)C2CCC2)[C@H](CO)O1)c1cnccn1	8	7
COc1ccc(-c2ccc3c(c2)O[C@H](CN(C)C(=O)Nc2ccccc2F)[C@H](C)CN([C@@H](C)CO)S3(=O)=O)cc1	?	.
Cc1ccc(S(=O)(=O)N[C@H]2CC[C@H](CCNC(=O)C3CC3)O[C@@H]2CO)cc1	9	2
C[C@@H]1CN([C@@H](C)CO)C(=O)c2cccc(NS(=O)(=O)c3ccc(F)cc3)c2O[C@H]1CN(C)C(=O)Nc1ccccc1	11	4

Looked up by structure from above, 2 records:
SMILES	Vaccinia inh	Vaccinia inh Venus
O=C(NCC[C@H]1CC[C@H](NC(=O)C2CCC2)[C@H](CO)O1)c1cnccn1	8	7
O=C(CC1CC1)N1[C@@H](CO)[C@@H](c2ccccc2)C12CN(Cc1ccccc1)C2	4	10

Filtered by structure: the entries above containing a Cl atom (3)
SMILES	Vaccinia inh	Vaccinia inh Venus
O=C(NCC[C@@H]1CC[C@H](NC(=O)C2CCC2)[C@H](CO)O1)c1cc(Cl)cc(Cl)c1	-5	-2
C[C@H](CO)N1C[C@H](C)[C@@H](CN(C)C(=O)Nc2cccc3ccccc23)Oc2ccc(NS(=O)(=O)c3ccc(Cl)cc3)cc2CC1=O	10	11
COc1cccc(S(=O)(=O)Nc2ccc3c(c2)[C@@H]2C[C@H](CC(=O)NCc4ccc(Cl)cc4)O[C@@H](CO)[C@@H]2O3)c1	?	.

More records
SMILES	Vaccinia inh	Vaccinia inh Venus
C/C=C/c1ccc([C@@H]2[C@H](CO)N(Cc3cccc(F)c3)C23CN(C(=O)CC)C3)cc1	-20	-4
C[C@@H]1CN([C@H](C)CO)C(=O)c2cccc(NC(=O)Nc3ccccc3)c2O[C@H]1CN(C)C(=O)Nc1cccc2ccccc12	0	5
COc1ccc(CNC(=O)C[C@H]2C[C@@H]3c4cc(NC(=O)NC5CCCC5)ccc4O[C@@H]3[C@@H](CO)O2)cc1	-2	0
CC(C)c1cn(CC[C@H]2CC[C@@H](NS(=O)(=O)Cc3ccccc3)[C@H](CO)O2)nn1	5	13
COc1cccc(S(=O)(=O)N[C@@H]2C=C[C@H](CC(=O)NC3Cc4ccccc4C3)O[C@@H]2CO)c1	7	4
C[C@@H]1CN([C@@H](C)CO)C(=O)Cc2cc(NC(=O)Nc3ccccc3)ccc2O[C@@H]1CN(C)C(=O)Nc1cccc2ccccc12	15	17
COc1ccc(S(=O)(=O)Nc2ccc3c(c2)C(=O)N([C@@H](C)CO)C[C@H](C)[C@@H](CN(C)C(=O)CCC(F)(F)F)OCCCC[C@H](C)O3)cc1	-19	-12
C[C@@H]1CN([C@@H](C)CO)C(=O)c2cc(NC(=O)CCCCCC(=O)Nc3ccccc3N)ccc2O[C@@H]1CN(C)Cc1ccncc1	8	4
C[C@@H]1CN([C@H](C)CO)S(=O)(=O)c2ccc(-c3cccnc3)cc2O[C@H]1CN(C)C(=O)CN(C)C	23	9
CC(C)C#Cc1ccc([C@@H]2[C@@H](C#N)N(C(=O)c3cccc(F)c3)[C@@H]2CO)cc1	-3	-8
O=C(Nc1ccccc1F)N1CCCCN2[C@H](CO)[C@@H](c3ccc(-c4cccnc4)cc3)[C@H]2C1	17	9
CNC[C@@H]1Oc2c(NC(=O)C3CCOCC3)cccc2C(=O)N([C@@H](C)CO)C[C@H]1C	4	3
COc1cccc(S(=O)(=O)N(C)C[C@@H]2Oc3ncc(C#CC(C)C)cc3C(=O)N([C@H](C)CO)C[C@@H]2C)c1	-10	-7
COc1ccc(CN(C)C[C@H]2OCCCC[C@H](C)Oc3ccc(NS(=O)(=O)c4ccc(C)cc4)cc3C(=O)N([C@@H](C)CO)C[C@@H]2C)cc1	?	.
COc1ccc(CNC(=O)C[C@@H]2CC[C@@H](NC(=O)Nc3ccc4c(c3)OCO4)[C@@H](CO)O2)cc1	-6	9
c1ccc(-c2ccc(C3[C@H]4CNC[C@@H]3N4Cc3nccs3)cc2)cc1 (stereo partly specified)	0&-5	-1&-4
CN1CCN(C(=O)C[C@H]2C[C@@H]3c4cc(NC(=O)c5ccc6c(c5)OCO6)ccc4O[C@@H]3[C@H](CO)O2)CC1	-15	-8
CNC[C@H]1Oc2ccc(NC(=O)Nc3ccc(C(F)(F)F)cc3)cc2C(=O)N([C@H](C)CO)C[C@@H]1C	-10	-18
COc1ccc2c3c(n(C)c2c1)[C@H](CO)N(C(C)=O)CC31CN(S(=O)(=O)c2ccccc2)C1	-5	-5
C[C@@H]1CN([C@H](C)CO)C(=O)Cc2cc(NC(=O)Nc3ccc(F)cc3)ccc2O[C@H]1CN(C)S(=O)(=O)c1ccc(Cl)cc1	-2	12
C[C@@H]1CN([C@H](C)CO)C(=O)Cc2cc(NS(=O)(=O)c3ccc(Cl)cc3)ccc2O[C@@H]1CN(C)S(=O)(=O)c1ccc(F)cc1	7	-1
CN1C(=O)c2cc(NC(=O)c3ccccc3)ccc2OC[C@H]2O[C@@H](CC(=O)NC3CCCC3)CC[C@H]21	6	2
CCCc1cn(CC[C@@H]2CC[C@H](NC(=O)Nc3ccccc3F)[C@@H](CO)O2)nn1	-8	-12
Cc1noc(C)c1NC(=O)Nc1ccc2c(c1)CC(=O)N([C@@H](C)CO)C[C@@H](C)[C@@H](CN(C)C(=O)NC1CCCCC1)O2	6	0
CN1C(=O)c2cc(NC(=O)c3cccc(F)c3)ccc2OC[C@@H]2O[C@@H](CC(=O)Nc3ccccc3)CC[C@@H]21	?	.
(next part)
SMILES	Vaccinia inh	Vaccinia inh Venus
CC(C)NC(=O)N(C)C[C@@H]1Oc2ncc(-c3cncnc3)cc2C(=O)N([C@H](C)CO)C[C@@H]1C	0	0
C[C@@H]1CN([C@@H](C)CO)C(=O)c2cc(C#CC3CCCCC3)cnc2O[C@H]1CN(C)C(=O)c1ccncc1	1	-11
CN(C)C(=O)[C@H]1[C@H](CO)[C@H]2Cn3c(ccc(C4=CCCCC4)c3=O)[C@H]2N1CC1CC1	12	10
C/C=C/c1ccc([C@@H]2[C@H](CO)N(CCC(F)(F)F)C23CN(C(=O)CC)C3)cc1	-8	-2
CCS(=O)(=O)N[C@@H]1CC[C@H](CC(=O)NC2Cc3ccccc3C2)O[C@H]1CO	-4	-1
CCCNC(=O)N1CC(=O)N2[C@H](CO)[C@H](c3ccc(-c4cccc(C)c4)cc3)[C@@H]2C1	12	-16
C[C@@H]1CN([C@@H](C)CO)C(=O)c2cc(NC(=O)Nc3ccc(C(F)(F)F)cc3)ccc2O[C@@H](C)CCCCO[C@@H]1CN(C)Cc1ccccc1	-33	-17
CN(C)CC(=O)Nc1ccc2c(c1)[C@H]1C[C@H](CC(=O)NCc3ccc(Cl)cc3)O[C@H](CO)[C@H]1O2	-4	3
C[C@@H]1CN([C@H](C)CO)C(=O)c2cccc(NC(=O)c3cnccn3)c2O[C@@H]1CN(C)C(=O)Nc1ccc2c(c1)OCO2	12	3
COc1ccc(S(=O)(=O)Nc2ccc3c(c2)C(=O)N([C@@H](C)CO)C[C@H](C)[C@@H](CN(C)C(=O)Nc2ccc(C(F)(F)F)cc2)OCCCC[C@@H](C)O3)cc1	-32	-31
CCCNC(=O)N(C)C[C@@H]1Oc2ncc(-c3ccc(C(=O)N(C)C)cc3)cc2C(=O)N([C@H](C)CO)C[C@H]1C	12	6
C[C@@H]1CN([C@@H](C)CO)C(=O)c2cc(NS(=O)(=O)c3cn(C)cn3)ccc2O[C@@H](C)CCCCO[C@H]1CN(C)C(=O)Cc1ccccc1	24	15
C[C@@H]1CN([C@H](C)CO)C(=O)Cc2cc(NC(=O)NC3CCCCC3)ccc2O[C@H]1CN(C)C(=O)Nc1cccc2ccccc12	-6	7
C[C@H]1CN([C@@H](C)CO)C(=O)c2cccc(NS(=O)(=O)c3cccs3)c2O[C@@H]1CN(C)Cc1ccccc1	6	6
OC[C@@H]1[C@H](c2ccc(/C=C/c3ccccc3)cc2)[C@H]2CN(CCC(F)(F)F)CCCCN12	?	.
COc1ccc(NC(=O)Nc2ccc3c(c2)C(=O)N([C@@H](C)CO)C[C@H](C)[C@@H](CN(C)Cc2ccc4c(c2)OCO4)OCCCC[C@@H](C)O3)cc1	?	.
O=C([C@H]1[C@H](CO)[C@H]2Cn3c(cccc3=O)[C@@H]1N2Cc1cccc(Cl)c1)N1CCOCC1	0	5
Cc1ccc(S(=O)(=O)N(C)C[C@H]2OCCCC[C@@H](C)Oc3ccc(NS(=O)(=O)c4ccc(Cl)cc4)cc3C(=O)N([C@@H](C)CO)C[C@@H]2C)cc1	-27	-28
CCC(=O)N1[C@H](CO)[C@@H](c2ccccc2)C12CN(Cc1cccnc1)C2	17	16
CCC(=O)Nc1ccc2c(c1)OC[C@H](C)N(Cc1ccccn1)C[C@H](C)[C@H](OC)CN(C)C2=O	5	3
CN1C(=O)c2cc(NC(=O)NC3CCCC3)ccc2OC[C@H]2O[C@@H](CC(=O)NCC3CC3)CC[C@H]21	10	16
COc1ccc(S(=O)(=O)Nc2ccc3c(c2)C(=O)N([C@@H](C)CO)C[C@H](C)[C@@H](CN(C)S(C)(=O)=O)O3)cc1	5	2
C[C@@H]1CN([C@@H](C)CO)S(=O)(=O)c2ccc(/C=C/c3ccccc3)cc2O[C@@H]1CN(C)C(=O)Nc1ccc(F)cc1	?	.
COc1ccccc1-c1ccc2n(c1=O)C[C@H]1[C@H](CO)[C@@H](C(=O)N3CCN(C)CC3)[C@@H]2N1CC1CC1	-8	2
Cc1ccccc1S(=O)(=O)N1CCCCN2[C@H](CO)[C@H](c3ccc(-c4cccnc4)cc3)[C@H]2C1	?	.
COC(=O)[C@@H]1[C@@H](CO)[C@@H]2Cn3c(ccc(-c4ccccc4F)c3=O)[C@@H]2N1CC1CCCC1	-20	-14
COc1cccc(-c2ccc([C@@H]3[C@@H](CO)N(C(C)=O)C34CN(C(C)=O)C4)cc2)c1	-4	-5
CO[C@@H]1CN(C)C(=O)c2ccc(NC(=O)C3CCOCC3)cc2OC[C@H](C)N(CC2CC2)C[C@@H]1C	10	16
COc1ccc2c3c([nH]c2c1)[C@H](CO)N(C(=O)CC1CC1)CC31CN(Cc2cccnc2)C1	14	10

Complete entries as entered above.
Cc1ccc(S(=O)(=O)N(C)C[C@H]2OCCCC[C@@H](C)Oc3ccc(NS(=O)(=O)c4ccc(Cl)cc4)cc3C(=O)N([C@@H](C)CO)C[C@@H]2C)cc1 is listed as Vaccinia inh: -27; Vaccinia inh Venus: -28
COc1ccccc1-c1ccc2n(c1=O)C[C@H]1[C@H](CO)[C@@H](C(=O)N3CCN(C)CC3)[C@@H]2N1CC1CC1 is listed as Vaccinia inh: -8; Vaccinia inh Venus: 2
